Mtb growth: M. tuberculosis H37Rv growth inhibitors, H37Rv strain (AID 1626). M. tuberculosis H37Rv growth inhibition; higher % means a stronger effect. inhibition, % at 10 µM, or IC50 in µM where a hit was titrated. hit rate 0.95% among 220,000;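 active = confirmed in a dose series; inconclusive = inhibition above 80% but not taken into the dose series; inactive = below 80% or under 30% at every dose of the series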;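 also: bacteria incubated seven days before Alamar blue readout; 0% = bacteria only wells and 100% = bacteria with antibiotic wells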
Mtb bLac sens: beta-lactam sensitization of Mtb H37Rv | AID 434955 | hit rate 0.27% among 330,000 | M. tuberculosis H37Rv growth with meropenem, percent inhibition; hits of this screen are not shown here | inhibition, % at 25 µM;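 active = about 74% or more and at least 40 points above the plate without the antibiotic, then above 30% in a dose series; inconclusive = first-round hits that could not be retested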;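 also: growth measured after seven days incubation then overnight dye step; 0% = bacteria only wells and 100% = bacteria with antibiotic; twin plates without the antibiotic show which effects depend on it; some results filed as inactive read as strong as hits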
YopH PTP inh: blocks Yersinia enterocolitica YopH tyrosine phosphatase; hit rate 0.16% among 140,000; AID 898; inhibition, %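 (about 10 µM by stock and volumes)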; fluorescence Ex485/Em525;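 active = inhibition of 50% or more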;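 also: controls were vehicle for no effect and minimum signal wells for full effect; inactives centre near -20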
RecA intein inh: blocks M. tuberculosis RecA intein splicing. P9WHJ3. cell-free RecA intein splicing, fluorescence. inhibition, %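 (about 9 µM by stock and volumes)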. hit rate 0.75% among 290,000. AID 2221; in the data active = inhibition above about 30%; inconclusive = no clear call, values can overlap the other calls;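 also: 0% = vehicle wells and 100% = reference inhibitor control wells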
Target sequence (P9WHJ3 whole entry, looked up): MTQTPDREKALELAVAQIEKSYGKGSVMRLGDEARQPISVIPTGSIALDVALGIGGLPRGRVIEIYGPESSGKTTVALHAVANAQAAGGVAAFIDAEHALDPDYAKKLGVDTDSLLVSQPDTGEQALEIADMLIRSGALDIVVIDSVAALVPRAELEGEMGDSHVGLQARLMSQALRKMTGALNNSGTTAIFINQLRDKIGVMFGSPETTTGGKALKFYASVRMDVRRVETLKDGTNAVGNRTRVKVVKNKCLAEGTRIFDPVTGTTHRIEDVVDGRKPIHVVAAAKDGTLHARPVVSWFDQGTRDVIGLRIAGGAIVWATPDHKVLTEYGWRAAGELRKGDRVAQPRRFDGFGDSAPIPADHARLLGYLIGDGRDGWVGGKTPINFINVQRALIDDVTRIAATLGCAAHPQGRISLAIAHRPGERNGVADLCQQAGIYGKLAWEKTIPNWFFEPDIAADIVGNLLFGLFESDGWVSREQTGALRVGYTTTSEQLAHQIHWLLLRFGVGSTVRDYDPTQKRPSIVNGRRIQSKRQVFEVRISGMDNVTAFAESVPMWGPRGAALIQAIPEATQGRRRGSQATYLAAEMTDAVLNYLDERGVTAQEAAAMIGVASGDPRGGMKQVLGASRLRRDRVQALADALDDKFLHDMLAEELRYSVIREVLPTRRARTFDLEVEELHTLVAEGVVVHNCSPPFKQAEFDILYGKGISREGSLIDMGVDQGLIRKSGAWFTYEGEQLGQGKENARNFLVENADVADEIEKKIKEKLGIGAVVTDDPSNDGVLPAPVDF
Arbovirus anti: antivirals against arbovirus infection. arbovirus infection cell-based antiviral screen. inhibition, % at 10 µM. hit rate 0.37% among 200,000. AID 1251;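 active = inhibition from about 30%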;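 also: bluetongue infection of BSR cells; cell survival read as ATP light after 72 h; 0% = infected wells without compound and 100% = uninfected wells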
Arbovirus anti repeat: further read-out of Arbovirus anti, marked with its call; inhibition, %; measured here: 10K subset replicate screen; many hits read low in the repeat;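 first of two repeat runs on a subset; 0% = infected and 100% = uninfected wells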
Active calls of the source: *; ? = inconclusive; . = no result given.

SMILES	Mtb growth	Mtb bLac sens	YopH PTP inh	RecA intein inh	Arbovirus anti	others
CN(C(=O)CSc1nnc(-c2ccc(OC(F)F)cc2)n1N)C1CCS(=O)(=O)C1 (stereo unspecified)	.	-9	.	8.7	.
Cc1ccc(S(=O)(=O)N(C)Cc2ccc(C(=O)NN=C(CC(C)C)CC(C)C)cc2)cc1	-1%	-5	-19	0.3	-10
Cc1cc(C(=O)CN2C(=O)NC3(CCCc4ccccc43)C2=O)c(C)n1Cc1ccco1 (stereo unspecified)	-9%	.	-22	.	-3
C/C(CC(=O)Nc1cc(C)ccn1)=N\NC(=O)C(=O)Nc1cccc(C)c1	?	63	-25	18	0
Cc1nc(N2CCN(c3ccccn3)CC2)c2c(C)c(C(=O)N3CCN(c4ccccc4F)CC3)sc2n1	.	61	.	14	.
Cc1ccc(C(=O)c2sc3nc4c(cc3c2N)CCC4)cc1	3%	-1	-2	-0.4	-2
CCCNC(=O)c1ccccc1NS(=O)(=O)c1ccc2c(c1)OCCO2	-4%	-4	-57	2.5	0
CCN(Cc1cc2ccccc2[nH]c1=O)C(=O)c1cccnc1	-8%	-11	-13	-1.9	0
C#CCOCCOCCOCCNc1nc(N2CCN(C(=O)[C@H](CCC(=O)O)n3cc(C(N)CO)nn3)CC2)nc(N2CCN(C(=O)[C@H](Cc3ccc(O)cc3)n3cc(C(N)CC(C)C)nn3)CC2)n1 (stereo partly specified)	.	-7	.	-2.0	11
Cc1cccc(NC(=S)NCCc2ccc3c(c2)OCCO3)c1C	-1%	-3	.	-2.3	6
COC(=O)c1cc(NC(=O)CN2CCc3cc4c(cc3C2)OCCCO4)cc(C(=O)OC)c1	.	-7	.	1.7	.
CC(=O)Nc1ccc(OCc2nnc(-c3ccccc3)o2)cc1	.	-8	.	-1.2	.
Cc1ccsc1C(=O)Nc1ccc2c(c1)OCCO2	-1%	3	0	-0.2	-15
CCN(C(=O)C1CCN(c2nc(-c3ccc(OC)cc3)no2)CC1)c1ccccc1	.	5	.	1.8	.
COC(=O)c1ccc(C23CC4(C2)[C@H](CN(CC2CCCCC2)[C@@H]4c2ccccc2)C3c2ccccc2)cc1 (stereo partly specified)	13%	54	.	11	.
CCCC(=O)Nc1cc(-c2nn(C)c(=O)c3ccccc23)ccc1N1CCCCC1	12%	67	-22	0.2	.
CCOc1ccc(OCC)c(NC(=O)CCNS(=O)(=O)c2cc(Br)cnc2N)c1	.	-6	.	0.1	.
O=C(N=C1SC2CS(=O)(=O)CC2N1CCc1ccccc1)C1CCCCC1 (stereo unspecified)	.	?	.	0.3	.
Cc1ccc(Sc2ncccc2NC(=O)c2ccccc2Cl)cc1	9%	12	.	3.1	.
c1ccc(CC2CCN(c3nc4ccccc4n4nnnc34)CC2)cc1	12%	0	4	2.8	8
O=C(/C=C/c1ccco1)N1CCCC(c2ccccc2)C1 (stereo unspecified)	-10%	33	.	12	-10
CC(Oc1ccccc1)C(=O)N=C1SC2CS(=O)(=O)CC2N1CCc1ccccc1 (stereo unspecified)	.	0	.	2.8	.
CC(=O)NCCc1nc2ccccc2n1CCOc1ccc(C)cc1	2%	2	.	1.0	.
Cc1cc(C)nc(NC2=NCC(=O)N2c2cc(Cl)cc(Cl)c2)n1	62%	51	-190	-1.2	8
CC(=O)Nc1ccc(NC(=O)C2CCN(C(=O)NC3CCCCC3)CC2)cc1	.	-5	.	1.4	.
Other structures
SMILES	Mtb growth	Mtb bLac sens	YopH PTP inh	RecA intein inh	Arbovirus anti	others
COCCCNC(=S)N/N=C/c1ccc2ccccc2c1	1%	68	.	-1.7	.
COc1ccc(-n2cc(C(=O)c3ccccc3O)cn2)cc1	6%	67	.	-1.1	-5
Cc1ccc2c(c1)CC1(CN2C)C(=O)NC(=O)N(c2ccccc2C)C1=O (stereo unspecified)	-6%	0	-31	-2.5	2
CCN(CC)CCCN(C(=O)c1ccc(Br)cc1)c1nc(-c2ccc(OC)cc2)cs1	.	86	.	6.5	.
COc1ccccc1C(=O)NN(C)C1=NS(=O)(=O)c2ccccc21	.	-4	.	-1.1	.
CN1CCc2c(sc3c2c(=O)n(-c2ccccc2)c2nncn32)C1	-1%	-12	-21	-6.5	7
CCOc1ccc(CCNC(=O)CN2C(=O)CCSc3ccccc32)cc1OCC	.	0	.	-1.8	.
CNC(=O)c1cc(Nc2nnc(C)c3ccccc23)ccc1OC	-2%	22	-10	1.0	1
COc1nc(Nc2cccc(C)c2)nc(N2CCCCC2)n1	.	0	-33	1.4	4
CCC(C)C(=O)N1CCCC(c2nc(-c3cccs3)no2)C1 (stereo unspecified)	-2%	-16	-12	1.1	10
Cc1cnn(-c2cc(Oc3ccccc3)ncn2)c1	10%	90	-27	0.5	5
Cc1ccc(OCCCC(=O)NC(C)c2ccccc2)cc1 (stereo unspecified)	28%	-11	5	8.7	3
CCOC(=O)C1=C(CC)Nc2ccccc2N=C1NC(=O)c1ccc(S(=O)(=O)N(C)C)cc1	-4%	1	-21	2.7	4
Cc1ccc(Cc2nc(-c3ccncc3)no2)cc1	4%	-5	.	-1.2	5
COc1ccc(C2(NC(C)=O)CCN(C(=O)c3cccs3)CC2)cc1	-8%	3	2	0.0	8
O=C(c1ccco1)N1CCN(CC(=O)N(C2CCCCC2)C2CCS(=O)(=O)C2)CC1 (stereo unspecified)	-12%	-1	-24	1.0	11
O=C(CN1CCN(c2ncccn2)CC1)N1CCN(C(c2ccccc2)c2ccccc2)CC1	.	.	19	.	-6	Arbovirus anti repeat=-1
CCCn1c2c(c(O)c(C(=O)NCc3ccccc3)c1=O)CCCC2	-8%	62	-153	3.6	-16
O=C(CCc1nc2ccccc2s1)N1CCN(c2ccccc2)CC1	3%	9	.	-1.1	6
Cc1ccc(C(C)(C)C)c(OCCCn2ccnc2)c1	?	89	-20	5.8	-3
CC(=O)OCCCNc1cc(Sc2ccc(Cl)cc2)c2nonc2c1[N+](=O)[O-]	9%	28	0	25	-44
CS(=O)(=O)N1CCC(C(=O)Nc2ccc(C(F)(F)F)cc2)CC1	-3%	-13	.	-1.5	5
CCCOc1ccc(CNC(=O)c2ccc3nc(N4CCOCC4)sc3c2)cc1	.	0	.	-1.2	.
N#C/C(=C\c1c(F)cccc1Cl)c1nn(-c2ccccc2)c(-n2cccc2)c1C#N	-9%	11	.	46*	.
COc1ccc(N(CC(=O)Nc2ccccc2C(F)(F)F)C2=NC3CS(=O)(=O)CC3S2)cc1 (stereo unspecified)	.	-7	.	5.4	.
The list continues.
SMILES	Mtb growth	Mtb bLac sens	YopH PTP inh	RecA intein inh	Arbovirus anti	others
Cc1cc(C)c(C#N)c(Cl)n1	10%	0	12	-3.1	1
Cn1c2c(c(=O)n(C)c1=O)C(C(F)(F)F)(C(F)(F)F)N=C(CCC1CCCCC1)N2	4%	?	-6	0.2	-21
O=C(NCc1nc2ccccc2[nH]1)C1=C[C@@H](C2CC2)C[C@@H](OCc2ccc(CO)cc2)O1	-6%	1	.	5.0	-2
CCc1cccc(OCCCn2ccnc2)c1	-1%	5	-25	-0.1	6
Cc1ccc(S(=O)(=O)NCCC(=O)N2CCC(C(N)=O)CC2)cc1C	.	-7	.	2.9	.
O=C(CSc1cccc[n+]1[O-])Nc1ccc([N+](=O)[O-])cc1Cl	-4%	-2	.	2.7	5
CC(=O)N(CCC1(C(C)C)CCOC(C)(C)C1)Cc1ccco1 (stereo unspecified)	-4%	-2	-1	0.8	2
CCCCN(CC(=O)NC(C)(C)C)C(=O)C(=O)Nc1ccc2c(c1)OCCO2	-2%	-2	.	0.4	4
NC(=O)c1ccccc1OC1CCC1	-5%	-2	.	0.9	.
CCn1cc(S(=O)(=O)Nc2ccc3c(c2)OCCO3)cn1	5%	-1	.	4.0	7
O=S(=O)(c1ccc(Cl)nc1)N1CCCCC1	.	-10	.	-2.7	.
COc1ccc(C(=O)NCC(=O)Nc2ccc(-c3ccccc3)cc2)cc1	.	-10	.	-1.4	.
Cc1cccc(C)c1NC(=O)CCCSc1nc2ccccc2s1	3%	0	-16	-0.4	3
Cc1ccc(OC(C)C(=O)N/N=C/c2ccccn2)cc1 (stereo unspecified)	-3%	-3	.	0.2	-1
COc1ccccc1C(=O)N1CCN(Cc2ccc3c(c2)OCO3)CC1	-1%	-8	-13	-1.3	-1
Cc1c(C(=O)NCc2ccoc2)oc2ccc3c(c12)C(=O)CC(C)(C)O3	.	71	-36	-2.0	7
Cc1cccc(OCc2nnc(SCCC(=O)O)n2-c2ccccc2)c1	.	-2	.	-0.2	.
CC(=O)Nc1ccc(S(=O)(=O)NCC(=O)OCC(=O)N2CCc3ccccc32)cc1	-7%	-2	-26	-0.7	1
CCOC(=O)Cn1nc(C)c(NC(=O)COc2ccc(OC)cc2)c1C	-3%	3	.	0.2	.
O=C(NNC(=S)Nc1ccc(F)cc1)c1ccccc1OC(F)F	2%	-3	-28	-1.0	-8
O=C(Nc1cccnc1Cl)c1ccc(=O)oc1	-5%	-3	.	.	.
COCCN1CCN(C(=O)c2cc(COc3ccc(F)cc3F)on2)CC1	.	-1	.	-2.3	.
O=C(COc1ccc(S(=O)(=O)N2CCCC2)cc1Cl)NCc1ccc2c(c1)OCO2	0%	5	13	-0.4	4
O=C(N/N=C/c1c[nH]c2ccccc12)c1cccc([N+](=O)[O-])c1	-4%	23	-12	0.5	-1
O=C(NNS(=O)(=O)c1ccc(Cl)cc1)c1cccc(S(=O)(=O)N2CCOCC2)c1	4%	2	.	0.0	.
(more compounds)
SMILES	Mtb growth	Mtb bLac sens	YopH PTP inh	RecA intein inh	Arbovirus anti	others
CCC1(c2ccccc2)NC(=O)N(CC(=O)NCc2ccc(F)cc2)C1=O (stereo unspecified)	.	6	.	0.7	.
CC(C)NC(=O)Nc1cccs1	-2%	-5	13	-3.2	-10
O=C(NCC(c1ccco1)N1CCc2ccccc21)c1ccccc1Cl (stereo unspecified)	.	1	.	0.9	.
O=C(O)c1cccc(S(=O)(=O)Nc2ccccc2Cl)c1	.	-1	5	-0.1	2
Nc1c(Cl)cc(-c2[nH]c3cc(C(=O)NCCO)ccc3c(=O)c2O)cc1Cl	.	2	.	-103	.
CCn1nc(NS(=O)(=O)c2ccc(NC(C)=O)cc2)c2cc3cc(C)ccc3nc21	.	-4	.	1.1	.
COc1cc(NC(=O)c2ccc3c(c2)OCCO3)ccc1NC(=O)c1ccco1	4%	4	.	4.2	-5
Cc1cccc(NC(=O)C2NC(=O)CC2c2ccccc2)c1C (stereo unspecified)	1%	0	-2	-0.5	-1
CCOC(=O)N1CCC(NS(=O)(=O)c2ccc(C)cc2)CC1	8%	20	.	-0.5	.
COc1ccc2cc(CCNC(=O)c3cccc([N+](=O)[O-])c3)c(=O)[nH]c2c1	5%	-7	.	-0.3	-2
O=C(O)c1ccnc(C(=O)O)c1	-1%	-2	-26	-5.5	3
O=C(NS(=O)(=O)c1ccc(Cl)cc1)c1ccccc1	5%	-8	.	0.1	3
COC(=O)c1ccc(/C=N/N2CCN(Cc3ccc(Cl)cc3)CC2)cc1	?	4	.	-0.5	.
COc1ccc(CN2C(=O)NC3(CCCc4ccccc43)C2=O)cc1F (stereo unspecified)	-7%	0	.	6.9	-1
COC(=O)/C(C#N)=C/c1c(N2CCN(c3cccc(Cl)c3)CC2)nc2c(C)cccn2c1=O	.	4	.	0.1	.
COC(=O)c1ccc(NC(=O)c2cc[n+](Cc3ccccc3)cc2)cc1	.	-4	.	-0.2	.
O=C(Nc1ccc([N+](=O)[O-])cc1)N1CCCCC1	4%	-3	.	-0.7	0
COC(C[C@H](O)[C@H](C)[C@H](O)COCc1ccccc1)OC	-11%	.	.	0.1	.
COc1cc(/C=N/NC(=O)CN(CCc2ccccc2)S(=O)(=O)c2ccc(NC(C)=O)cc2)cc(OC)c1OC	53%	3	-9	2.3	-5
CC(=O)c1cccc(-c2ccc3c(=O)[nH]c(Nc4ccccc4)cc3c2)c1	-1%	2	.	94*	.
Cc1cc(S(N)(=O)=O)ccc1N=Cc1c(O)n(-c2ccccc2)c(=O)[nH]c1=O	5%	-5	.	0.3	8
CNC(=O)c1c(NC(=O)c2ccc(S(=O)(=O)N(C)c3ccccc3)cc2)sc2c1CCN(C(C)C)C2	.	0	.	-3.3	.
CCn1cc(Br)c(C(=O)NC(C)c2ccccc2)n1 (stereo unspecified)	-8%	1	-20	-1.3	3
CCOC(=O)CCNC(=O)N1CCCC(N(C)CCc2ccccc2)C1 (stereo unspecified)	.	-4	.	-2.2	.

A stretch from the list above, for reference:
SMILES	Mtb growth	Mtb bLac sens	YopH PTP inh	RecA intein inh	Arbovirus anti	others
CCC1(c2ccccc2)NC(=O)N(CC(=O)NCc2ccc(F)cc2)C1=O (stereo unspecified)	.	6	.	0.7	.
CC(C)NC(=O)Nc1cccs1	-2%	-5	13	-3.2	-10
O=C(NCC(c1ccco1)N1CCc2ccccc21)c1ccccc1Cl (stereo unspecified)	.	1	.	0.9	.
O=C(O)c1cccc(S(=O)(=O)Nc2ccccc2Cl)c1	.	-1	5	-0.1	2

Only part of the results is shown (hit frequency here may not be typical).
